# ID4 binder – binds human ID4 protein on microarray. AID 624137. actives 1.2% (n = 31,000). small molecule microarray, Flag-ID4 binding, fluorescence F/B. P47928. calls only;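 active = spot signal over background at p below 0.07 in all four prints; compounds were printed on slides so no solution concentration is given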;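 also: a binder raises fluorescence above local background on the spot; about 2 pmol printed per array spot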
# Target sequence (P47928 whole entry, looked up): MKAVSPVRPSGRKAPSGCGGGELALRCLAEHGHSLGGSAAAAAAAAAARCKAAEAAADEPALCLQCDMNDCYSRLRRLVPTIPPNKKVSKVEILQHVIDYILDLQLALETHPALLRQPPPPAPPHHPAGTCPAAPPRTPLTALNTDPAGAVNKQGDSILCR
# Calls only; i = inactive.
SMILES	ID4 binder
O=C(c1ccc(F)cc1)n1nc(-c2ccccc2)nc1NCc1ccco1	i
CN(CC(=O)Nc1ccc(F)c(Cl)c1)S(=O)(=O)c1ccc(F)cc1	i
C[C@@H]1O[C@@H](O[C@H]2[C@@H](Oc3cc(O)c4c(c3)O[C@H](c3ccc(O)cc3)CC4=O)O[C@H](CO)[C@@H](O)[C@@H]2O)[C@H](O)[C@H](O)[C@H]1O	i
O=C(C[C@@H]1C=C[C@@H](NC(=O)Cc2ccccn2)[C@@H](CO)O1)NCCCN1CCOCC1	i
CC(C)(C)OC(=O)Nc1ncnc2c1ncn2C1OC(CO)C2OC(C)(C)OC21 (centres undefined)	i
C[C@@H](NC(=O)C[C@@H]1C=C[C@@H](NC(=O)C2CC2)[C@H](CO)O1)c1ccccc1	i
COC(=O)c1cc(NC(=O)COc2ccc(C)cc2)cc(C(=O)OC)c1	i
Nc1c(Cl)cc(NC(=O)CCCC(=O)O)cc1Cl	i

# (more compounds)
SMILES	ID4 binder
CCOc1csc2nc(C)cc(C)c12	i
Cc1ccc(N(C(C)C(=O)Nc2ccccc2F)S(C)(=O)=O)cc1 (centres undefined)	i
O=C(Nc1cc(F)ccc1F)N[C@H]1C=C[C@@H](CC(=O)N2CCc3ccccc3C2)O[C@@H]1CO	i
O=S(=O)(NCc1ccccn1)c1ccc(Cl)c(Cl)c1Cl	i
CCC(=O)N[C@H]1C=C[C@H](CC(=O)NCc2ccccc2F)O[C@@H]1CO	i
O=C(CSc1nc2ccccc2s1)Nc1ccccc1C(=O)c1ccccc1	i
Cc1ccc(SCc2cc(=O)[nH]c(Nc3nc(C)c4ccccc4n3)n2)cc1	i
COc1cc(NC(=O)C2CCC(=O)N2S(=O)(=O)c2ccc(C)cc2)cc(OC)c1 (centres undefined)	i

# (list continues)
SMILES	ID4 binder
COCC#Cc1ccc2c(c1)O[C@@H](CN(C)S(=O)(=O)c1ccc(C)cc1)[C@@H](C)CN([C@@H](C)CO)S2(=O)=O	i
COc1ccc(OC(C)C(=O)Nc2cccnc2)cc1 (centres undefined)	i
Cc1ccc(C(=O)C2C(=O)C(=O)N(Cc3ccco3)C2c2ccc(F)cc2)o1 (centres undefined)	i
COc1ccc(C)cc1N(CC(=O)Nc1ccc(I)cc1)S(C)(=O)=O	i
COc1ccc(-c2cc(C(F)(F)F)nc(SCC(=O)Nc3ccc(Cl)cc3Cl)n2)cc1	i
C[C@H]1CN([C@@H](C)CO)C(=O)c2cc(C#CC3CC3)cnc2O[C@@H]1CN(C)C(=O)C1CCCCC1	i
C[C@@H]1CN([C@@H](C)CO)C(=O)c2cc(C3=CCCC3)cnc2O[C@@H]1CN(C)Cc1ccc(F)cc1	i
COC(=O)c1c(NC(=S)NCc2ccc(S(N)(=O)=O)cc2)sc2c1CCC(C)C2 (centres undefined)	i

# Continued.
SMILES	ID4 binder
O=C(NCCCN1CCOCC1)c1cc(-c2ccccc2)on1	i
Cc1nc2n(CC(=O)c3cccs3)c3ccccc3n2n1	i
COC(=O)c1ccc(NC(=O)C(C)N(c2ccc(Cl)cc2)S(C)(=O)=O)cc1 (centres undefined)	i
C[C@@H]1CN([C@@H](C)CO)S(=O)(=O)c2ccc(-c3cccnc3)cc2O[C@@H]1CN(C)C(=O)NC1CCCCC1	i
COc1ccc(C#Cc2cnc3c(c2)C(=O)N([C@@H](C)CO)C[C@H](C)[C@@H](CN(C)C)O3)cc1	i
Cc1ccc(OCC(=O)NC(=S)Nc2cccc(NC(=O)c3ccccc3Cl)c2)cc1	i
O=C(COc1ccc(Br)cc1CO)Nc1ccccc1F	i
C[C@@H]1CN([C@@H](C)CO)C(=O)CCCn2nncc2CO[C@H]1CN(C)CC1CC1	i

# Reformatted field by field: 4 of the compounds above
> O=C(NCCCN1CCOCC1)c1cc(-c2ccccc2)on1
  ID4 binder: i
> Cc1nc2n(CC(=O)c3cccs3)c3ccccc3n2n1
  ID4 binder: i
> COC(=O)c1ccc(NC(=O)C(C)N(c2ccc(Cl)cc2)S(C)(=O)=O)cc1 (centres undefined)
  ID4 binder: i
> C[C@@H]1CN([C@@H](C)CO)S(=O)(=O)c2ccc(-c3cccnc3)cc2O[C@@H]1CN(C)C(=O)NC1CCCCC1
  ID4 binder: i

# Next section
SMILES	ID4 binder
CC(C)COC(=O)N(C)C[C@H]1OCc2ccccc2-c2ccccc2C(=O)N([C@@H](C)CO)C[C@@H]1C	i
CCOC(=O)c1cnc2ccc(F)cc2c1NCc1ccco1	i
Cc1ccnc(SCC(=O)Nc2ccc(Cl)cc2Cl)n1	i
COC(=O)c1ccc(NC(=O)CCn2nc(-c3ccc(Cl)cc3)c3ccccc3c2=O)cc1	i
COc1ccc(OC)c(S(=O)(=O)N2CCC(C(=O)Nc3cc(Cl)ccc3Oc3ccccc3)CC2)c1	i
C[C@H](CO)N1C[C@H](C)[C@H](CN(C)Cc2cccc(C(=O)O)c2)Oc2cc(C3=CCCC3)ccc2S1(=O)=O	i
Cc1cc(C(F)(F)F)n2ncnc2n1	i
CCOc1ccc2nc(SCC(=O)Nc3ccc(Br)cc3F)sc2c1	i

# The list continues.
SMILES	ID4 binder
COC(=O)[C@@]1(Cc2ccccc2CN=[N+]=[N-])N=C(c2ccc(OCCCO)cc2)O[C@H]1c1ccccc1N=[N+]=[N-]	i
O=C(CCCN1C(=O)c2ccccc2C1=O)Nc1ccc(Cl)cc1C(F)(F)F	i
CCCn1c2ccccc2c2nnc(SCCC(=O)O)nc21	i
Nc1nnc(SCC(=O)Nc2ccc(Oc3ccccc3)cc2)s1	i
COC(=O)C[C@H]1C[C@H]2c3cc(NC(=O)Nc4ccc(C(F)(F)F)cc4)ccc3O[C@H]2[C@H](CO)O1	i
COc1ccc(Cl)cc1N(CC(=O)Nc1ccc(F)c(F)c1)S(C)(=O)=O	i
Cc1ccc(Nc2nc(Oc3ccc(OCc4ccccc4)nn3)nc(N3CCOCC3)n2)cc1	i
Cc1cc(C)nc(NS(=O)(=O)c2ccc(NC(=S)NC(=O)C3CCCC3)cc2)n1	i

# The list goes on; it opens with the three that closed the last part.
SMILES	ID4 binder
COc1ccc(Cl)cc1N(CC(=O)Nc1ccc(F)c(F)c1)S(C)(=O)=O	i
Cc1ccc(Nc2nc(Oc3ccc(OCc4ccccc4)nn3)nc(N3CCOCC3)n2)cc1	i
Cc1cc(C)nc(NS(=O)(=O)c2ccc(NC(=S)NC(=O)C3CCCC3)cc2)n1	i
COc1ccc(S(=O)(=O)N(C)CC(=O)NC2CC2)cc1C	i
C[C@H]1CN([C@@H](C)CO)C(=O)c2cc(Br)cnc2O[C@@H]1CN(C)C(=O)c1ccccn1	i
C[C@@H]1CN([C@H](C)CO)C(=O)c2cc(C#CC3CC3)cnc2O[C@H]1CN(C)C(=O)Cc1ccccn1	i
Cc1ccc(OCC(=O)NCCN2CCOCC2)c(Br)c1	i
COc1ccc2sc(SCc3nc(N)nc(Nc4cccc(C)c4C)n3)nc2c1	i
CCN(C)C[C@@H]1Oc2cc(C#CCC3CCCC3)ccc2S(=O)(=O)N([C@@H](C)CO)C[C@H]1C	i
O=C(C[C@@H]1CC[C@@H](NS(=O)(=O)c2ccccc2F)[C@H](CO)O1)NCCCN1CCOCC1	i
C[C@@H]1CN([C@H](C)CO)C(=O)c2cc(-c3ccccc3F)cnc2O[C@@H]1CN(C)C	i

# Remaining list, next part:
SMILES	ID4 binder
Cc1noc(C)c1NC(=O)N[C@H]1CC[C@@H](CC(=O)N2CCCCC2)O[C@@H]1CO	i
CCn1c(SCC(=O)N2CCc3ccccc32)nnc1-c1ccc([N+](=O)[O-])cc1	i
Cn1c(=O)c2c(nc(NCCCO)n2C/C=C/c2ccccc2)n(C)c1=O	i
C[C@@H]1CN([C@@H](C)CO)C(=O)c2cc(C#CCc3ccccc3)cnc2O[C@@H]1CN(C)Cc1cccnc1	i
CCCN(C)C[C@H]1Oc2ncc(C#Cc3ccc(OC)cc3)cc2C(=O)N([C@H](C)CO)C[C@H]1C	i
COc1cccc(N(CC(=O)Nc2ccc(Br)cc2F)S(C)(=O)=O)c1	i
Cc1coc(C)c1C(=O)CC1(O)C(=O)N(CCCC#N)c2ccccc21 (centres undefined)	i
COc1cccc(C(=O)COc2ccc(NC(=O)c3ccc(Cl)c(Cl)c3)cc2)c1	i

# (next part)
SMILES	ID4 binder
COC(=O)c1cc(NC(=O)CC2Sc3ccccc3NC2=O)cc(C(=O)OC)c1 (centres undefined)	i
C[C@@H]1CN([C@@H](C)CO)C(=O)c2cc(C3=CCCCC3)cnc2O[C@@H]1CN(C)C(=O)Nc1ccc(F)cc1	i
CCn1c(SCC(=O)Nc2ccc3c(c2)OCCO3)nnc1-c1cccs1	i
CCC(Sc1nc2ccccc2s1)C(=O)Nc1ccc(Br)cc1 (centres undefined)	i
CCCc1cc(=O)[nH]c(SCC(=O)Nc2ccc(Cl)c(Cl)c2)n1	i
C=CC[C@]1(C(=O)NCc2ccccc2)N=C(c2ccc(OCCCO)cc2)O[C@H]1c1ccccc1	i
O=C(C[C@@H]1CC[C@H](NC(=O)c2cccnc2)[C@H](CO)O1)NCc1ccc(Cl)c(Cl)c1	i
COc1cccc(S(=O)(=O)N[C@@H]2C=C[C@@H](CC(=O)NC3Cc4ccccc4C3)O[C@H]2CO)c1	i

# (cont.)
SMILES	ID4 binder
C[C@@H]1CN([C@@H](C)CO)S(=O)(=O)c2ccc(-c3cccnc3)cc2O[C@H]1CN(C)C(=O)NC1CCCCC1	i
C[C@H]1CN([C@@H](C)CO)C(=O)c2ccccc2-c2ccccc2CO[C@H]1CN(C)C(=O)c1ccccc1	i
CN(C)C(=O)C[C@H]1C[C@@H]2c3cc(NC(=O)c4cccnc4)ccc3O[C@@H]2[C@@H](CO)O1	i
CSc1ncc(Cl)c(C(=O)Nc2nnc(SC)s2)n1	i
CCC(=O)N[C@H]1CC[C@H](CC(=O)NCc2ccccc2F)O[C@H]1CO	i
C[C@H]1CN([C@@H](C)CO)C(=O)c2cc(C#CC3CC3)cnc2O[C@H]1CN(C)C	i
C[C@H](CO)N1C[C@H](C)[C@H](CN(C)CC2CCOCC2)Oc2ncc(C#Cc3ccccn3)cc2C1=O	i
COc1ccc(-c2nn(C)c(=O)c3ccccc23)cc1NC(=O)COc1cccc(C)c1	i

# Next part.
SMILES	ID4 binder
O=C(CC1CC1)Nc1ccc2c(c1)[C@H]1C[C@@H](CC(=O)N3CCc4ccccc4C3)O[C@H](CO)[C@H]1O2	i
Cc1ccc2oc(-c3cccc(NC(=O)COc4cccc(C)c4C)c3)nc2c1	i
COc1ccccc1CNC(=O)C[C@@H]1C[C@H]2c3cc(N(C)C)ccc3O[C@H]2[C@@H](CO)O1	i
CCNc1nc(SCC(=O)Nc2ccc(Cl)c(Cl)c2)nc(N(C)C)n1	i
C[C@@H]1CN([C@H](C)CO)S(=O)(=O)c2ccc(C3=CCCCC3)cc2O[C@H]1CN(C)Cc1ccccc1	i
Cc1cc(Br)ccc1NC(=O)Cn1cnc2ccccc2c1=O	i
Cc1nnc(SCC(=O)Nc2ccc(Cl)c(C)c2)s1	i
O=C1CC(=Nc2ccc(F)c(C(F)(F)F)c2)c2ccccc2C1=O	i

# The list continues:
SMILES	ID4 binder
C[C@H](CO)N1C[C@H](C)[C@H](CN(C)Cc2cccnc2)Oc2ncc(-c3cccc(F)c3)cc2C1=O	i
CCc1ccc(-c2nc3cc(NC(=O)COc4ccccc4[N+](=O)[O-])ccc3o2)cc1	i
COC(=O)c1ccc(C2C(Oc3ccc(OC)cc3)C(=O)N2Cc2ccc(F)cc2)cc1 (centres undefined)	i
Cc1ccc(-c2ccc3c(c2)O[C@H](CN(C)Cc2ccccn2)[C@@H](C)CN([C@H](C)CO)S3(=O)=O)cc1	i
C[C@H](CO)N1C[C@H](C)[C@H](CN(C)Cc2ccccc2)Oc2cc(/C=C/c3ccccc3)ccc2S1(=O)=O	i
CCC(=O)Nc1ccc2c(c1)OC[C@@H](C)N(Cc1ccccc1OC)C[C@@H](C)[C@H](OC)CN(C)C2=O	i
Cc1csc2c(SCC(O)C(F)(F)F)ncnc12 (centres undefined)	i
O=C(CSc1nc2ccccc2c(=O)n1-c1ccc(Cl)cc1)Nc1ccccc1[N+](=O)[O-]	i

# (cont.)
SMILES	ID4 binder
Cc1noc(C)c1C(=O)NCCCn1ccnc1	i
N/C(CS(=O)(=O)Cc1ccc(F)cc1)=N\O	i
Cc1ccccc1-c1cnc2c(c1)C(=O)N([C@H](C)CO)C[C@@H](C)[C@H](CN(C)Cc1cccnc1)O2	i
C[C@H](CO)N1C[C@H](C)[C@@H](CN(C)Cc2ccc(C(=O)O)cc2)Oc2cc(C#CCC3CCCC3)ccc2S1(=O)=O	i
CCCC#Cc1cnc2c(c1)C(=O)N([C@H](C)CO)C[C@H](C)[C@@H](CN(C)C(=O)Nc1cc(F)ccc1F)O2	i
O=C(COc1cccc2ccccc12)Nc1ccccc1C(=O)O	i
COCCNC(=O)C[C@H]1C[C@@H]2c3cc(NC(=O)Nc4ccccc4F)ccc3O[C@@H]2[C@@H](CO)O1	i
Cc1cccc(CN(C)C[C@H]2OCc3cnnn3CCCC(=O)N([C@@H](C)CO)C[C@H]2C)c1	i

# Further records.
SMILES	ID4 binder
Clc1ccc(OCCCCSc2ncccn2)cc1	i
O=C(Nc1ccc2c(c1)[C@H]1C[C@H](CC(=O)N3CCc4ccccc4C3)O[C@H](CO)[C@H]1O2)c1ccc2c(c1)OCO2	i
COc1cc(C(=O)NC(C(=O)O)C(C)C)cc(OC)c1OC (centres undefined)	i
CC(=O)Nc1ccc(NC(=O)Cn2ccc([N+](=O)[O-])n2)cc1	i
COCCOC(=O)N1C(=O)[C@@]2(c3cc(C#Cc4ccc(OC)cc4)ccc31)[C@H](c1ccc(O)cc1)N1[C@H](c3ccccc3)[C@H](c3ccccc3)OC(=O)[C@H]1[C@@H]2C(=O)NC[C@H](O)c1ccccc1	i
COc1ccccc1NC(=O)N(C)C[C@H]1Oc2cc(Br)ccc2S(=O)(=O)N([C@@H](C)CO)C[C@@H]1C	i

# Screening results deposited in PubChem BioAssay by Broad Institute.

# This is a subset. The share of hits here may be higher or lower than overall.
